TAR Tat displ: HIV-1 TAR-Tat binding disruption | z-score (test concentration not listed) | actives 0.6% (n = 100,000) | AID 1259389 | HIV-1 TAR RNA, Tat peptide displacement FRET; active compounds read high;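 further: score is relative to mean and SD of negative controls; some compounds called inactive have numbers as strong as hits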
CDC25B CDK2 inh: human CDC25B-CDK2/CyclinA binding inhibition; P30305+P24941; actives 0.72% (n = 94,000); AID 1259370; HTRF CDC25B-CDK2/CyclinA binding, anti-His/anti-Flag; active compounds read high; z-score (no concentration beside the values);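 further: score is relative to mean and SD of negative controls; strong numbers were not always called active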
* marks the source's active call; other numbers are inactive results; nt = not tested or not shown.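 How the source made its calls: active means z-score from 3 up in half or more of its runs; inactive means the rest.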

SMILES | TAR Tat displ | CDC25B CDK2 inh
O=S(=O)(Nc1cccc(-c2ccc(N3CCOCC3)nn2)c1)c1ccc2c(c1)OCCO2 | 0.51 | nt
COCCN1C(=O)c2[nH]nc(-c3ccccc3O)c2C1c1ccc(F)cc1 (stereo unspecified) | -0.93 | -1.3
CCOc1ccc(S(=O)(=O)[C@H]2CS(=O)(=O)C[C@@H]2NCc2ccccn2)cc1 | 1.8 | -1.5
C=CCOC(=O)C1=C(C)Nc2nc(SCCC)[nH]c(=O)c2C1c1cccnc1 (stereo unspecified) | -0.18 | 5.1
O=C1NC(=O)/C(=C/c2ccc(OS(=O)(=O)c3ccc(F)cc3F)cc2)N1 | nt | 0.21
CC1CCN(c2c(NCC3CCC(C(=O)NCc4cccs4)CC3)c(=O)c2=O)CC1 (stereo unspecified) | 3 | -2
S=c1nc(CCCCc2nc(=S)[nH][nH]2)[nH][nH]1 | nt | -1.3
O=C(/C=C/c1ccc([N+](=O)[O-])cc1)Nc1cccc(C(=O)Nc2ccccc2C(=O)O)c1 | nt | -3.6
CCOC(=O)c1ccc(N2C(=O)c3n[nH]c(-c4ccco4)c3C2c2ccc(O)c(OCC)c2)cc1 (stereo unspecified) | -1.3 | nt
c1nc(N2CCOCC2)c2nc3n(c2n1)CCCCC3 | -0.08 | nt
Cc1cccc(CSc2nc(C)nc3c2c(=O)n(C)c(=O)n3C)c1 | nt | -1.7
N/C(Cc1nc(-c2ccc(Cl)cc2)cs1)=N\O | nt | -0.76
O=C1CC(c2nc3ccccc3n2Cc2ccccc2)CN1c1ccc(F)cc1 (stereo unspecified) | -0.2 | 1
Cc1nn(CCCC(=O)N(CC2CC=CCC2)CC2CCCO2)c(=O)c2cc3occc3n12 (stereo unspecified) | 2 | -1.4
CCOC(=O)N1CCC(Nc2nc3ccccc3c3nnc(C)n23)CC1 | 0.03 | -0.49
CCOc1cc2c(cc1OCC)C(c1ccc(C)c(Br)c1)CC(=O)N2 (stereo unspecified) | -2.3 | -1.6
COc1ccc(-c2nn3c(COc4cccc(C)c4)nnc3s2)cc1 | 1.3 | 0.54
CC(C)NC(=O)c1ccc(CS(=O)c2ccc(Cl)cc2)o1 (stereo unspecified) | 2.5 | nt
O=C(c1cc(-c2ccc(Br)cc2)n[nH]1)N1CCN(C(=O)c2ccco2)CC1 | 0.25 | nt
Cc1noc2ncn(CC(=O)N3CCC(C)CC3)c(=O)c12 | 1.2 | nt

Entries of single compounds, quoted from the list:
Shown for N/C(Cc1nc(-c2ccc(Cl)cc2)cs1)=N\O = TAR Tat displ: nt; CDC25B CDK2 inh: -0.76
Shown for O=C1CC(c2nc3ccccc3n2Cc2ccccc2)CN1c1ccc(F)cc1 (stereo unspecified) = TAR Tat displ: -0.2; CDC25B CDK2 inh: 1

(continued)
SMILES | TAR Tat displ | CDC25B CDK2 inh
CCCN(CCC)C(=O)Cn1c(C(=O)OC)cc2oc(C)cc21 | 1.1 | -2.3
CCOc1ccc(S(=O)(=O)c2c[nH]c3ccc(CC)cc3c2=O)cc1 | -0.56 | -1.1
CC1(C)CC(=O)c2cc(NC(=O)c3ccc(Cl)cc3)c(=O)oc2C1 | 0.1 | -1.4
O=C(c1cc(C2CC2)[nH]n1)N1CCN(c2ccc(N3CCOCC3)nn2)CC1 | 0.24 | nt
CCOC(=O)c1ccc2[nH]c(CSc3ncn[nH]3)cc(=O)c2c1 | 0.73 | nt
COc1ccc(OC)c(NC(=O)c2csnn2)c1 | 1.2 | -0.7
CC(C)(CC(=O)NCCN1CCc2ccccc2C1)CC1=NS(=O)(=O)c2ccccc2N1 | 0.35 | nt
CCOC(=O)c1c(C)[nH]c(C)c1S(=O)(=O)NCCCc1ccco1 | -0.53 | nt
CCOC(=O)C1CCN(S(=O)(=O)c2ccc3c(c2)nc(N2CCCCC2)c2nncn23)CC1 | 3.2 | -1.2
COC(=O)c1ccc2c(=O)n3nc(Nc4ccc(Br)cc4)sc3nc2c1 | 0.75 | nt
COc1ccc(C2CC(=O)c3cc(-c4nc(-c5cccc(Cl)c5)cs4)c(=O)[nH]c3C2)cc1OC (stereo unspecified) | -5.4 | -1.8
Cc1ccc(S(=O)(=O)/N=C(\N)Nc2nc(C)c3ccccc3n2)cc1 | nt | -6.1
CC1CCN(C(=O)c2cc(S(=O)(=O)N(C)CC(=O)Nc3nccs3)c[nH]2)CC1 | 0.01 | nt
Cc1cc2n(n1)CCCN2C(=O)CCC(=O)N1CCCC1 | 1.7 | nt
CCN(CC)c1ccc(NS(=O)(=O)c2cc(-c3cc(C)no3)ccc2C)c(C)c1 | 0.96 | nt
Cc1ccc2c(c1)C(=O)C(=O)N2CCn1c2ccccc2c2nc3ccccc3nc21 | 0.76 | -1.5
Cc1ccc(CSc2nc3ccc(C)cc3[nH]2)cc1 | 0.28 | -1.9
O=c1oc2c3c(ccc2c2ccccc12)OCN(Cc1ccc2c(c1)OCO2)C3 | -0.86 | -1.6
Cc1nc2c(c(C)nn2C(C)(C)C)c(C)c1CCC(=O)N1CCC(C)CC1 | 1.4 | 0.82
Cc1nnsc1C(=O)NC1CCN(Cc2ccccc2)CC1 | nt | -1.2
COc1ccc(C2/C(=C(\O)c3ccc(Cl)cc3)C(=O)C(=O)N2CCC(=O)O)c(OC)c1 (stereo unspecified) | nt | -6.1
O=C(CSc1nccn1CC1CCCO1)Nc1ccccc1 (stereo unspecified) | 0.58 | nt
Clc1ccc(C2=NN3C(C2)c2ccccc2OC3c2cccnc2)cc1 (stereo unspecified) | -0.28 | -2
Cc1c(Br)cc2nsnc2c1C | nt | 0.89
O=C1c2ccccc2-c2onc3c(N4CCN(c5ccccc5)CC4)cc(NCCO)c1c23 | 0.44 | -2.1
CCCCSc1nc(N2CCCC2)c2c(c1C#N)CC(C)(C)OC2 | -0.27 | 1.1
CCOc1ccc(S(=O)(=O)[C@H]2CS(=O)(=O)C[C@@H]2NC2CCCC2)cc1 | -0.25 | -2.3
COC(=O)c1sccc1S(=O)(=O)Nc1ncc(C)cc1Br | nt | -0.67
Nc1cccc(-c2nc3cc4ccccc4cc3[nH]2)c1 | nt | -1.9
CC(CCc1ccccc1)NC(=O)CC(C)(C)CC1=NS(=O)(=O)c2ccccc2N1 (stereo unspecified) | 0.51 | nt
Cc1nnsc1C(=O)NNS(=O)(=O)c1c(C)noc1C | nt | -1.4
Cc1nn(-c2nncc(-c3ccc(F)cc3)n2)c2c1C(c1cccs1)CC(=O)N2 (stereo unspecified) | 1.9 | 1.2
FC(F)Oc1ccccc1C=Nc1ccc(Cl)cc1 | nt | -1.1
CC(=O)Nc1ccc(NC(=O)CCc2c(C)nc3ncnn3c2C)cc1 | nt | 0.21
COc1ccccc1OC(C)C(=O)Nc1noc2ccccc12 (stereo unspecified) | 2.4 | -3.5
Cc1c(C(=O)N2CCN(CCc3ccccn3)CC2)oc2ccc(Br)cc12 | 1.8 | -0.27
O=C(CCc1nnc2ccc(NCc3ccccc3)nn12)NCc1ccc2c(c1)OCO2 | 0.8 | nt
NC(=O)CSc1nc2c(c(=O)n1-c1ccccc1)C1(CCCC1)Cc1ccccc1-2 | nt | -1.7
O=C(NCCn1c(-c2ccccc2)nc2cccnc21)NC1CCCCC1 | 0.6 | nt
O=C(CN1CCSc2ccccc21)NC1CCCCC1 | 0.39 | nt

3 compounds already listed, sorted by molecular weight, descending.
SMILES | TAR Tat displ | CDC25B CDK2 inh
CC(CCc1ccccc1)NC(=O)CC(C)(C)CC1=NS(=O)(=O)c2ccccc2N1 (stereo unspecified) | 0.51 | nt
Clc1ccc(C2=NN3C(C2)c2ccccc2OC3c2cccnc2)cc1 (stereo unspecified) | -0.28 | -2
FC(F)Oc1ccccc1C=Nc1ccc(Cl)cc1 | nt | -1.1

Remaining list, next part
SMILES | TAR Tat displ | CDC25B CDK2 inh
Cc1c(C(=O)N2CCCC2)c(S(=O)(=O)N2CCc3ccccc32)c(C)n1C | 0.14 | nt
O=c1nc(Nc2ccccc2)cc2n1CCc1sccc1-2 | -1.1 | -0.92
CC(C)S(=O)(=O)c1oc(-c2cccs2)nc1S(=O)(=O)c1ccc(F)cc1 | -1.2 | -6.9
COc1ccccc1-n1nnc(-c2nc(-c3ccc(Cl)cc3)no2)c1N | 0.12 | nt
Cc1ccc(OCc2nc3ccc(Cl)cc3[nH]2)c(C)c1 | 1.7 | -0.82
Cc1ccc(CNC(=O)c2cc3c(s2)-c2ccccc2S(=O)(=O)C3)o1 | 1.1 | 0.54
O=C(Nc1ccc2c(c1)OCO2)C1CCN(S(=O)(=O)c2cccc3nonc23)CC1 | 1.6 | nt
CCOC(=O)c1c(C)nsc1N/N=C(\C#N)C(=O)c1ccc(Cl)cc1 | nt | -1.6
Cc1ccc(N2C(=O)CCS2(=O)=O)cc1S(=O)(=O)Nc1cccc2cccnc12 | 1.2 | -0.86
Cc1c(C(=O)NCC2COc3ccccc3O2)sc2ncn(CC(=O)N3CCCCC3C)c(=O)c12 (stereo unspecified) | 2.5 | nt
Fc1ccc(-c2cn3cc(Cc4ccccc4F)sc3n2)cc1 | -2 | -1.1
CCc1cc2c(N(C)c3ccc(F)cc3)ncnc2s1 | 1 | nt
CCOc1cc(C2CC(=O)Nc3c2c(=O)nc(SC)n3C)ccc1O (stereo unspecified) | 0.5 | -0.93
Clc1cccc2c(N3CCN(c4ccccc4)CC3)cnnc12 | 0.81 | nt
CNC(=O)c1c(NC(=O)c2cc(-c3cccs3)nc3ccccc23)sc2c1CCC2 | 0.58 | nt
Clc1cccc(-c2noc3ncnc(NC4CCN(Cc5ccccc5)CC4)c23)c1 | 0.3 | nt
Cc1ccc(Nc2cnc3ccccc3n2)cc1F | -0.52 | nt
CCC(C)NC(=O)NCc1cccn1Cc1cc(C)ccc1C (stereo unspecified) | -0.11 | nt
O=C(Nc1cc(F)ccc1F)C1CCCN(c2nnc(-n3cccc3)s2)C1 (stereo unspecified) | 2 | nt
CCOc1cc(-c2ccc(OC(=O)c3ccc(F)cc3)c(OC)c2)cc(=O)c2c(C)oc(C)c12 | -0.52 | -1.2

A portion from further up:
SMILES | TAR Tat displ | CDC25B CDK2 inh
CC(C)(CC(=O)NCCN1CCc2ccccc2C1)CC1=NS(=O)(=O)c2ccccc2N1 | 0.35 | nt
CCOC(=O)c1c(C)[nH]c(C)c1S(=O)(=O)NCCCc1ccco1 | -0.53 | nt
CCOC(=O)C1CCN(S(=O)(=O)c2ccc3c(c2)nc(N2CCCCC2)c2nncn23)CC1 | 3.2 | -1.2
COC(=O)c1ccc2c(=O)n3nc(Nc4ccc(Br)cc4)sc3nc2c1 | 0.75 | nt

Next section:
SMILES | TAR Tat displ | CDC25B CDK2 inh
COCc1cc(C)nc2sc3c(=O)n(-c4cccc(Cl)c4)nnc3c12 | -0.43 | -0.64
O=[N+]([O-])c1ccc(Oc2ccc(Cl)cc2)nc1 | nt | -0.9
O=S(=O)(NCc1cccn1Cc1cccc(F)c1)c1ccc2ccccc2c1 | -1.3 | nt
c1ccc(CCN2CCc3nc(N4CCN(c5ccccc5)CC4)ncc3C2)cc1 | -1.6 | nt
CC(C)(C)NC1CCCCC1NS(=O)(=O)c1ccc(Cl)cc1 (stereo unspecified) | -0.56 | -0.85
Clc1ccc2nc(-c3ccco3)c(Nc3ccccc3)n2c1 | nt | -0.91
Cc1ccc(CNc2ncnc3c2nc2n3CCCCC2)cc1 | 0.86 | nt
Cc1cccc(CN2N=NC3C(=O)N(c4ccc(F)c(F)c4)C(=O)C32)c1 (stereo unspecified) | 0.76 | 1.9
COc1ccccc1-c1nc(-c2ccc(-c3ccccc3)nc2OC)no1 | -1.4 | -0.38
CCCSc1nc2sc3c(c2c(=O)[nH]1)CC(C)(CC)OC3 (stereo unspecified) | 0.22 | -2.9
Cc1cc2nc(C)n(CCCOc3ccccc3C)c2cc1C | 1.2 | -0.13
O=C(NCCc1c[nH]c2ccccc12)C1=Cc2cc(Br)ccc2OC1 | 1.7 | nt
COC(=O)c1cc(S(=O)(=O)N(Cc2ccco2)CC2CCCO2)c[nH]1 (stereo unspecified) | 1.1 | nt
Cc1oc2ncnc(N3CCOCC3)c2c1C(=O)N(CCC(C)C)Cc1ccco1 | 1.9 | nt
COc1cc(Cl)c(NS(=O)(=O)c2ccc3c(c2)NC(=O)CC(=O)N3)c(OC)c1 | -2.3 | nt
CC(C)c1cc(Br)c(NC(=O)NCCN2CCNC2=O)c(Br)c1 | nt | -2.6
CCOC(=O)c1cc(S(=O)(=O)N2CCN(c3ncccn3)CC2)cn1C | 1.9 | -1
COc1ccccc1-c1nnc2sc(-c3ccc(Br)cc3)nn12 | 0.61 | -1.4
COCc1cc(=O)[nH]c(-c2ccc(C(F)(F)F)cn2)n1 | nt | -0.41
Cc1cc(OC(=O)c2ccccc2)n(-c2ccccc2)n1 | nt | 0.15
O=[N+]([O-])c1cccc(/C=C/c2ccccn2)c1 | nt | -1.1
CCCCOc1ccc(NC(=O)CSCC(=O)Nc2ccc3ccccc3c2)cc1 | nt | -3.6
Cc1cccc(N2CCN(S(=O)(=O)c3c(C)noc3/C=C/N(C)C)CC2)c1C | 0.71 | nt
CCCC(=O)Nc1nnc(SCc2cc(=O)n3nc(CC)sc3n2)s1 | 1.3 | nt
COC(=O)C1=C(O)/C(=C\c2ccc(CNC(=O)C(=O)Nc3ccc(C)cc3)o2)N=C1C | nt | -1.6
CCOC(=O)CN1C(=O)C(O)(CC(=O)c2ccccc2)c2ccccc21 (stereo unspecified) | 1.5 | -0.87
O=C(c1ccco1)N1CCN(C(=O)c2ccc(N3C(=O)CCS3(=O)=O)cc2Cl)CC1 | 1.7 | -0.71
Cc1noc(/C=C/c2cccs2)c1S(=O)(=O)N1CCC(C(=O)N2CC(C)CC(C)C2)CC1 (stereo unspecified) | 0.53 | 0.9
CCc1ccc2occ(CC(=O)Nc3sc4c(c3C(=O)NCc3ccco3)CCC4)c2c1 | -0.48 | 1.1
c1ccc(-n2nnnc2Oc2cccc(CNCc3cccnc3)c2)cc1 | 21* | nt
COc1ccc(Nc2nc3ccccc3c3nncn23)cc1OC | 1.2 | -0.89
O=C(CSc1nc2ccccc2[nH]1)Nc1ncc(Br)s1 | 2.3 | 1.3
CCc1ccc(N=Cc2ccc(N(C)CCC#N)cc2)cc1 | nt | -1.1

Source: PubChem (Center for Chemical Genomics, University of Michigan)
